# Source: PubChem BioAssay
# NPYLR7 ag = mosquito NPYLR7 agonism; actives 0.15% (n = 270,000); HEK293T NPYLR7/Galpha15, GCaMP6s calcium fluorescence; AID 1259423; activation, % at 10 µM; in the data active = activation above about 40%;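 note: 0% = vehicle and 100% = reference agonist at the receptor; some compounds past the cut are filed as inactive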
# NPYLR7 ag max-min = recorded beside NPYLR7 ag, whose call it bears; activation, %; measured here: Max-Min RFU normalised activation; some inactives read as strong as hits;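 span of the calcium signal over five minutes; 0% = vehicle and 100% = native peptide agonist; compound fluorescence can raise it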
# * hit, by the source's call. Only part of the results is shown; the hit share may differ from the screen's.
# Start of the data: the first 22 compounds as a preview:
molecule	NPYLR7 ag	NPYLR7 ag max-min
c1coc(-c2noc(CNCC3OCCc4ccccc43)n2)c1 (configuration not stated)	25	13
COc1ccc(Cl)cc1-n1c(C)cn2c3c(=O)n(C)c(=O)n(C)c3nc12	7	5
O=C(NCc1nnnn1-c1ccc(F)c(F)c1)c1ccc(Br)o1	1	0
COc1ccc(NC(=O)C2(C)CCCCN2C)cc1OC (configuration not stated)	8	3
Cn1c(=O)c2c(SCC(=O)Nc3cccc4ccccc34)nc(C3CCCC3)nc2n(C)c1=O	-2	-6
COc1ccc(NC(=O)Cn2c(=O)n(-c3ccccc3F)c(=O)c3ccc(Cl)cc32)cc1OC	11	10
Cc1ccc(-c2nc(CNC(=O)C3[C@H]4CNC[C@@H]34)[nH]c2-c2ccccn2)cc1 (some centres not stated)	-3	-2
CCCCn1c(N)c(N(CC)C(=O)CCC(C)C)c(=O)[nH]c1=O	8	7
Cc1cccc(-c2nnc(SCc3ccccc3C)n2-c2ccccc2C)c1	15	16
O=c1[nH]c(=S)[nH]c2c1cnn2CCO	-2	-4
Cc1n[nH]c(C)c1CCC(=O)N1CCC2(CC1)C(=O)Nc1ccccc12	3	2
CC(NC(=O)c1ccc(-c2cccc(C(F)(F)F)c2)s1)c1ccc(Br)cc1 (configuration not stated)	23	21
CCN(C(C)=O)c1nc(C2NC(=O)NC(C)=C2C(=O)OC)cs1 (configuration not stated)	-8	-12
CCC(C)N(Cc1csc(COc2ccccc2OC)n1)C(=O)c1cccc(C)c1 (configuration not stated)	-8	2
CC(=O)N[C@@H]1C[C@H](CCc2ccccc2)O[C@H](c2cnc3ccccc3n2)C1	18	12
CCn1nnc2c(SCc3ccc(C(=O)OC)cc3)ncnc21	2	15
C=CCn1c(SCc2cc(Cl)c3c(c2)OCCO3)nnc1-c1ccncc1	10	8
C#CCn1c(C2CC(=O)N(c3ccc(CC)cc3)C2)nc2ccccc21 (configuration not stated)	1	7
CN1C[C@H](NC(=O)COCc2nc3ccc(F)cc3[nH]2)C[C@H]1CO	3	3
CN(C)c1nc2c(c(N(C)C)n1)CCN(C(=O)C1CC13CCNCC3)C2 (configuration not stated)	15	7
O=C(C1=C(O)C(=O)N(CCCn2ccnc2)C1c1ccco1)c1cccs1 (configuration not stated)	8	2
CNCC(=O)N1CCCN(CCCc2ccccc2)CC1	14	0

# The listing (from the top)
molecule	NPYLR7 ag	NPYLR7 ag max-min
c1coc(-c2noc(CNCC3OCCc4ccccc43)n2)c1 (configuration not stated)	25	13
COc1ccc(Cl)cc1-n1c(C)cn2c3c(=O)n(C)c(=O)n(C)c3nc12	7	5
O=C(NCc1nnnn1-c1ccc(F)c(F)c1)c1ccc(Br)o1	1	0
COc1ccc(NC(=O)C2(C)CCCCN2C)cc1OC (configuration not stated)	8	3
Cn1c(=O)c2c(SCC(=O)Nc3cccc4ccccc34)nc(C3CCCC3)nc2n(C)c1=O	-2	-6
COc1ccc(NC(=O)Cn2c(=O)n(-c3ccccc3F)c(=O)c3ccc(Cl)cc32)cc1OC	11	10
Cc1ccc(-c2nc(CNC(=O)C3[C@H]4CNC[C@@H]34)[nH]c2-c2ccccn2)cc1 (some centres not stated)	-3	-2
CCCCn1c(N)c(N(CC)C(=O)CCC(C)C)c(=O)[nH]c1=O	8	7
Cc1cccc(-c2nnc(SCc3ccccc3C)n2-c2ccccc2C)c1	15	16
O=c1[nH]c(=S)[nH]c2c1cnn2CCO	-2	-4
Cc1n[nH]c(C)c1CCC(=O)N1CCC2(CC1)C(=O)Nc1ccccc12	3	2
CC(NC(=O)c1ccc(-c2cccc(C(F)(F)F)c2)s1)c1ccc(Br)cc1 (configuration not stated)	23	21
CCN(C(C)=O)c1nc(C2NC(=O)NC(C)=C2C(=O)OC)cs1 (configuration not stated)	-8	-12
CCC(C)N(Cc1csc(COc2ccccc2OC)n1)C(=O)c1cccc(C)c1 (configuration not stated)	-8	2
CC(=O)N[C@@H]1C[C@H](CCc2ccccc2)O[C@H](c2cnc3ccccc3n2)C1	18	12
CCn1nnc2c(SCc3ccc(C(=O)OC)cc3)ncnc21	2	15
C=CCn1c(SCc2cc(Cl)c3c(c2)OCCO3)nnc1-c1ccncc1	10	8
C#CCn1c(C2CC(=O)N(c3ccc(CC)cc3)C2)nc2ccccc21 (configuration not stated)	1	7
CN1C[C@H](NC(=O)COCc2nc3ccc(F)cc3[nH]2)C[C@H]1CO	3	3
CN(C)c1nc2c(c(N(C)C)n1)CCN(C(=O)C1CC13CCNCC3)C2 (configuration not stated)	15	7
O=C(C1=C(O)C(=O)N(CCCn2ccnc2)C1c1ccco1)c1cccs1 (configuration not stated)	8	2
CNCC(=O)N1CCCN(CCCc2ccccc2)CC1	14	0
CCn1cc(SCC(=O)N2C[C@H]3C[C@H](O)[C@H](O)C[C@H]3C2)c2ccccc21	13	-3
COc1ccc(/C=C2N=C(/C=C\c3cccc([N+](=O)[O-])c3)OC/2=O)cc1	1	-4
COc1cccc(CC(=O)N2CCOC(COc3ccc(Cl)c(C)c3)C2)c1 (configuration not stated)	-5	-7
CC(C)CNC(=O)C(NC(=O)CC(C)C)C1CCN(S(=O)(=O)c2ccc(Cl)cc2)CC1 (configuration not stated)	-6	-2
COc1ccc(C(C)=O)cc1CN1C(=O)C(C)ON=C1c1ccc(CN2CCOCC2)cc1 (configuration not stated)	9	5
CC(=O)Nc1ccc(CNC(=O)c2c(C)nn(C)c2C)cc1	6	4
CCc1noc(C)c1C(=O)O	-5	-8
Cc1nc(-c2cccc(-n3ccnc3C3CCN(C(C)C)CC3)c2)n[nH]1	3	1

# Retrieved by structure from above, three records:
molecule	NPYLR7 ag	NPYLR7 ag max-min
CCc1noc(C)c1C(=O)O	-5	-8
CC(=O)Nc1ccc(CNC(=O)c2c(C)nn(C)c2C)cc1	6	4
COc1ccc(/C=C2N=C(/C=C\c3cccc([N+](=O)[O-])c3)OC/2=O)cc1	1	-4

# Other records:
molecule	NPYLR7 ag	NPYLR7 ag max-min
COc1cn(CC(=O)Nc2ccccc2)c(CN2CCCCC2)cc1=O	3	2
Cc1cc(C)nc(N2CCC(O)(CN3CCCC3)CC2)n1	7	-2
CCc1cc2c(=O)n(CC)c(SC3CCOC3=O)nc2s1 (configuration not stated)	-4	-6
COc1cccc(-c2cc(C(=O)NC(C)c3ccccc3)n3nc(C(C)(C)C)cc3n2)c1 (configuration not stated)	3	6
O=C(Nc1ncn[nH]1)C1(c2cccc(C(F)(F)F)c2)CC1	16	6
COCCNc1nc2c(c(=O)[nH]c(=O)n2C)n1CC(=O)c1ccccc1	1	-2
CC(=O)c1c(C)[nH]c(C(=O)Nc2cccc(-c3nnco3)c2)c1C	1	0
CNC(=O)Cn1c(CO)cnc1SCc1ccc(C(F)(F)F)cc1	6	3
CCn1ccc2c(CN3CCC4(CC3)CNC(=O)C4)cccc21	13	-4
O=C(CSC1=Nc2ccccc2CS1)c1c[nH]c(C(=O)N2CCCC2)c1	-7	-8
CCN1CCc2nc(N)oc2CC1	6	-11
Cn1c(=O)c2c(nc(CN3CCC(Cc4ccccc4)CC3)n2Cc2ccccc2F)n(C)c1=O	8	2
Cc1c(C(=O)N2CCN(C(=O)Cc3ccccc3)CC2)cc(-c2ccc(Cl)cc2)n1-c1ccccc1F	15	25
COc1ccc(-c2cn3nc(SCC(=O)Nc4cc(C)cc(C)c4)ccc3n2)cc1	6	4
O=S(=O)(c1ccccc1)N1CCCC(OCc2cc(F)cc(F)c2)C1 (configuration not stated)	-3	0
CCCN(C(=O)c1ocnc1C)C1CCCN(Cc2ccccc2)C1 (configuration not stated)	3	2
Cc1cc(C)nc(Sc2ccc(S(C)(=O)=O)cc2[N+](=O)[O-])n1	2	0
CCC1CN(C(=O)CCC2CC2)CCC(=O)N1Cc1ccccc1 (configuration not stated)	26	18
CCN(CC)C(=O)Oc1ccc2c(ccn2Cc2ccccc2OC)c1-c1cc(F)cc(F)c1	32	29
CN1CCc2c(sc3c2C(=O)NC(c2ccc(O)cc2O)N3)C1 (configuration not stated)	21	11
Cc1cc(C)[n+](-c2ccc(C(C)C)cc2)c2[nH]c(=O)[nH]c(=O)c12	2	0
Clc1ccc2nc(-c3cccnc3)c(NC3CCCC3)n2c1	12	4
COc1ccc(C(=O)NN=Cc2c(O)ccc3oc4c(c23)CCCC4)cc1	-1	-6
Cc1nc2c(OCc3ccc(C#N)cc3)cccn2c1N(C)Cc1cccs1	20	26
O=C1NC(=Nc2ccccc2)S/C1=C/c1ccc(OCc2ccc([N+](=O)[O-])cc2)cc1	-7	-7
CCOc1ccc(C(=O)Nc2cc(C)nn2-c2nc(C)c(CC)c(=O)[nH]2)cc1OCC	2	0
CCCCNC(=O)N(CC(=O)N1c2ccccc2-n2cccc2C1c1ccc(C)cc1)C(C)C (configuration not stated)	9	25
COc1cc(C#N)cc(Cl)c1OCC(=O)NC1CCCC1	10	9
Cc1c(CCO)sc[n+]1CC(=O)OCCC12CC3CC(CC(C3)C1)C2	-3	-3
CC1CCCN(C(=O)C(C)Nc2ccccc2-c2ccccc2)C1 (configuration not stated)	1	0

CC(C)Nc1nc(NCc2ccccc2)c2sccc2n1
  NPYLR7 ag = 9
  NPYLR7 ag max-min = 7

CCc1ccc(CCn2cnc(C#N)n2)cc1
  NPYLR7 ag = -5
  NPYLR7 ag max-min = -10

Cc1ccc2nc(N(CCCn3ccnc3)C(=O)c3cccs3)sc2c1
  NPYLR7 ag = -12
  NPYLR7 ag max-min = -19

CC(=O)c1cccc(NC(=O)CC2CC3CCC2C3)c1 (configuration not stated)
  NPYLR7 ag = 1
  NPYLR7 ag max-min = 3

N#CC(=C(O)COC(=O)Cc1n[nH]c(=O)c2ccccc12)c1nc2ccccc2[nH]1
  NPYLR7 ag = 1
  NPYLR7 ag max-min = -2

CCOC(=O)Cc1cc(=O)n2[nH]c(-c3ccccc3)c(-c3ccccc3)c2n1
  NPYLR7 ag = -2
  NPYLR7 ag max-min = -3

Cn1c(=O)[nH]c(=O)c2c3c(cnc21)C(=O)CC(c1cccc(Cl)c1)C3 (configuration not stated)
  NPYLR7 ag = 2
  NPYLR7 ag max-min = 38

Cc1c(C(=O)N2CCC(C(N)=O)CC2)nnn1-c1nc(-c2ccccc2)cs1
  NPYLR7 ag = 0
  NPYLR7 ag max-min = -2

CN1CCN(/N=C2\CCCc3nc(-c4ccccc4)sc32)CC1
  NPYLR7 ag = 0
  NPYLR7 ag max-min = 16

c1ccc(-n2nc(C3CC3)nc2-c2ccccc2-c2nn[nH]n2)cc1
  NPYLR7 ag = 14
  NPYLR7 ag max-min = 3

Cc1ccc(F)c(N2CCN(C(=O)c3ccc(Cl)cc3Cl)C(C)C2=O)c1 (configuration not stated)
  NPYLR7 ag = 10
  NPYLR7 ag max-min = 26

Fc1ccc(Nc2nc3ccccc3o2)c(F)c1
  NPYLR7 ag = -1
  NPYLR7 ag max-min = -2

Cc1ccc(C2(O)CCN(Cc3ccc(C#CCCO)cc3)CC2)nc1
  NPYLR7 ag = -2
  NPYLR7 ag max-min = -3

CCN1C(=O)N(CCc2ccccc2)C2(CCN(CCc3ccccc3)CC2)C1=O
  NPYLR7 ag = 1
  NPYLR7 ag max-min = 3

Clc1cc(/C=C\c2ccccc2)c(Br)s1
  NPYLR7 ag = -2
  NPYLR7 ag max-min = -4

CCc1c(C)c(C(=O)NC(C)CC)n(Cc2ccccc2C)c1C (configuration not stated)
  NPYLR7 ag = -2
  NPYLR7 ag max-min = 3

O=C(O)C12CC3CC(CC(Br)(C3)C1)C2
  NPYLR7 ag = -6
  NPYLR7 ag max-min = -7

CCCN(Cc1ccc(C#N)cc1F)S(=O)(=O)c1ccc(F)cc1
  NPYLR7 ag = 7
  NPYLR7 ag max-min = 6

COc1ccc(CCn2c(-c3ccccc3I)nc3ccc(Cl)cc3c2=O)cc1
  NPYLR7 ag = 29
  NPYLR7 ag max-min = 16

OCc1ccccc1-c1nnnn1-c1ccccc1
  NPYLR7 ag = 11
  NPYLR7 ag max-min = 9

CC1CN(S(=O)(=O)N(Cc2ccccc2)C(C)Cc2cccs2)CC(C)O1 (configuration not stated)
  NPYLR7 ag = 8
  NPYLR7 ag max-min = 5

O=C(O)c1cc(-c2ccco2)[nH]n1
  NPYLR7 ag = 3
  NPYLR7 ag max-min = 3

CC(=O)c1cccc(C(=O)N[C@H]2C[C@H]3C(=O)N(C)CC(=O)N3C2)c1
  NPYLR7 ag = 5
  NPYLR7 ag max-min = 3

COc1ccccc1C1Oc2ccccc2C2CC(c3ccc4c(c3)OCCO4)=NN21 (configuration not stated)
  NPYLR7 ag = 4
  NPYLR7 ag max-min = 5

CN(C)C(CNc1nn(C)c(=O)n(C)c1=O)c1ccccc1 (configuration not stated)
  NPYLR7 ag = 1
  NPYLR7 ag max-min = 2

Cc1ccc(OCc2nc(C(=O)NCCN(C)C)cs2)cc1C
  NPYLR7 ag = -1
  NPYLR7 ag max-min = -5

CCN(CC)c1ccc(CN(C(=O)C(C)C)C2CC2)c(OS(C)(=O)=O)c1
  NPYLR7 ag = 16
  NPYLR7 ag max-min = 20

CC(C)(C)c1ccc(NC(=O)NCc2nnnn2-c2cccc(F)c2)cc1
  NPYLR7 ag = -8
  NPYLR7 ag max-min = -7

COc1ccc(/C=C2/C(=O)NC(=O)N(c3ccc(C(=O)O)cc3)C2=O)c(OC)c1
  NPYLR7 ag = -9
  NPYLR7 ag max-min = -13
